# TRPML1 ag = activates the human TRPML1 channel; AID 624414; activation, % (no concentration beside the values); 0.12% of 410,000 active; TRPML1-expressing cells, Ca2+ dye fluorescence, FDSS; host cell line not named in the record; reference of the full effect not given here; in the data active = activation above about 50%; inconclusive = about 30% to 50%; inactive = below about 30%; further: 0% is about no effect; the text of the record puts the active cut at 80%
# Target sequence (Q9GZU1 whole entry, looked up): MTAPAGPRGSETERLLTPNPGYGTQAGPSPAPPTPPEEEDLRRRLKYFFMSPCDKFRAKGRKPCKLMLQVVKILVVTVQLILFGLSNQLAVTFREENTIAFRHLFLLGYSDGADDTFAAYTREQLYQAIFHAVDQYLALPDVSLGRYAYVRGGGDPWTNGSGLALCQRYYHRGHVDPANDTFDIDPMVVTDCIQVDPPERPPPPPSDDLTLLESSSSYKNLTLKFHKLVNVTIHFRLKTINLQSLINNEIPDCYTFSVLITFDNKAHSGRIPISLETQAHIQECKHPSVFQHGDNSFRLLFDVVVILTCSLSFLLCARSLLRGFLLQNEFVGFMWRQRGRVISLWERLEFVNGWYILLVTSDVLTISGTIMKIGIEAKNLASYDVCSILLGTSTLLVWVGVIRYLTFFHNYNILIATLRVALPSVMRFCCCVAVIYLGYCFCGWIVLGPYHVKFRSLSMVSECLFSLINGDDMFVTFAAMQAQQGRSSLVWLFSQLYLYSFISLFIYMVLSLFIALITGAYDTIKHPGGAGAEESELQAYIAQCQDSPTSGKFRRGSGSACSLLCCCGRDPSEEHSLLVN
#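 Tet-induced TRPML1-DL cells, 1,500 per well, cultured overnight, were loaded with a no-wash Ca2+ dye for 45–90 min. Calcium fluorescence was recorded on the FDSS for 110 s after compound addition, before the EC80 agonist (4 uM 54-4) was added.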
# D2 PAM = potentiates the human D2 dopamine receptor allosterically; DiscoveRx D2 beta-arrestin cells, luminescence, 90 min; 100% = 57 uM dopamine signal; P14416; AID 624464; potentiation, % (no concentration beside the values); 0.23% of 360,000 active; active = potentiation of 50% or more; inconclusive = 30% to 50%; inactive = 30% or less;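 further: compound concentration not given in the record; tested on top of an EC20 dose of dopamine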
# Target sequence (P14416 whole entry, looked up): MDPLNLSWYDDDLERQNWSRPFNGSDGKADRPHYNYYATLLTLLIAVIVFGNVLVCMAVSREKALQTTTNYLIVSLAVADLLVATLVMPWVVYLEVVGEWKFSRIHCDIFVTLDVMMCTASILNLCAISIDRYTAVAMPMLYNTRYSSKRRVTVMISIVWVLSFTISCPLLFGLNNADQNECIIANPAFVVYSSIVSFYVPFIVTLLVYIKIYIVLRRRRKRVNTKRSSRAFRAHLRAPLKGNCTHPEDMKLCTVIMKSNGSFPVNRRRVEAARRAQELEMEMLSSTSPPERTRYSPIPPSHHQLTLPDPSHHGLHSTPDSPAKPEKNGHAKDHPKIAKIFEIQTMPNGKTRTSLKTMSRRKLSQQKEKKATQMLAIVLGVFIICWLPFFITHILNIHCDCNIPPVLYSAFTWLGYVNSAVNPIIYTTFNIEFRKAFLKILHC
#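 PathHunter D2 cells, attached overnight at 37 deg C, received compound in DMSO plus dopamine at EC20 (50 nM final) for 90 min at 37 deg C. Beta-arrestin recruitment was read as luminescence after 1 h with detection reagent at ambient temperature.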
# Six1-Eya2 blk = blocks human Six1 binding to Eya2 | Q15475+O00167 | AlphaScreen GST-Six1/His-Eya2 binding, biochemical; stronger effect = lower value; control for the full effect not named in the record | activity change, % (test concentration not listed) | 0.56% of 360,000 active; in the data active = activity change below about -65%; inconclusive = about -30% to -65%; inactive = above about -30%; further: on the % scale 0 is the no-effect control and ±100 the full control effect; compound concentration not given in the record
#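 Six1/Eya2 binding was read as AlphaScreen signal after compounds were pinned into GST-Six1 plus His-tagged Eya2 (5X stock 250/500 nM) in pH 8.0 Tris/NaCl/TCEP buffer, beads added, then incubated 1 h, 37 C, dark.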
# TRPML1 blocker = blocks the human TRPML1 channel | TRPML1-inducible cells, Ca2+ dye fluorescence, FDSS; stronger effect = lower value; inhibition of EC80 agonist-evoked calcium signal | 0.02% of 390,000 active | activity change, negative = inhibition, % (no concentration beside the values); in the data active means activity change below about -50%; inconclusive means about -30% to -50%; inactive means above about -30%;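 further: stimulus is agonist 54-4 at its EC80 concentration; on the % scale 0 is the no-effect control and ±100 the full control effect; compound concentration not given in the record; the text of the record puts the active cut at -80%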
#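 TRPML1-DL cells, Tet-induced overnight (~16 h, 37 °C) at 1,500 cells/well, were loaded with Ca8 no-wash dye plus quencher for 45-90 min at room temperature. Compounds were pinned during FDSS kinetic reading; agonist 54-4 at EC80 (4 uM final) then added.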
# CtBP-E1A blk = CtBP/E1A binding inhibition | AlphaScreen GST-E1A/His-CtBP binding, 1536-well; stronger effect = lower value; control for the full effect not named in the record | activity change, % (concentration not given with the values) | 0.49% of 340,000 active | AID 651724; in the data active means activity change below about -65%; inconclusive means about -30% to -65%; inactive means above about -30%; further: on the % scale 0 is the no-effect control and ±100 the full control effect
#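 Protein mix (5X: 125 nM each GST-E1A, His-CtBP) was incubated with pinned compound 2 h at 37 deg C in dark, in 50 mM Tris pH 8.0 buffer with 300 mM NaCl. Glutathione donor and nickel acceptor beads followed; AlphaScreen signal read after 1 h.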
# TRPV1 PAM = potentiators of human vanilloid receptor 1 (TRPV1); TRPV1-expressing cells, Fluo-8 calcium influx, capsaicin EC20 potentiation; host cell line not named in the record; control for the full effect not named in the record; potentiation, % at 8.33 µM; 0.02% of 320,000 active; AID 540277; active means potentiation above 80%; inconclusive means 30% to 80%; inactive means below 30%; further: 0% is about no effect
#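 Fluo-8 calcium influx in TRPV1-expressing cells, kinetic read (ex 480/em 520 nm). Compound added and read 3 min for agonist activity, followed by capsaicin at EC20 final and 2 min further read for enhancement.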
# Numbers without * were called inactive; ? = inconclusive; · = not tested or not shown; & = joins results of further samples.
no. | Molecule | TRPML1 ag | D2 PAM | Six1-Eya2 blk | TRPML1 blocker | CtBP-E1A blk | TRPV1 PAM
1 | CCc1ccc(NC(=O)c2cc(-c3ccc4c(c3)OCO4)on2)cc1 | 0.0 | -6 | 9 | 1 | -2 | 1
2 | CCN(CC)CCn1c2ccccc2c2nc3ccccc3nc21 | · | -28 | 1 | · | · | -2
3 | Cc1ccc(NC(=O)c2ccco2)c(NC(=O)C2CCCO2)c1 (centres undefined) | 0.4 | -3 | 2 | 19 | 10 | -1
4 | C[C@@H](NC(=O)[C@@H]1CCCN1C(=O)[C@@H]1CCCN1)c1ccccc1 | -0.5 | · | -6 | · | 0 | ·
5 | O=C1COc2ccc(S(=O)(=O)N3CCN(c4cccc(C(F)(F)F)c4)CC3)cc2N1 | 0.7 | -9 | 2 | 5 | -12 | 15
6 | O=C(O)c1n[nH]c2ccccc12 | 7.5 | -2 | -7 | 29 | -8 | 22
7 | CCN1CCN(C(=O)c2ccccc2Nc2ccc(SC(F)F)cc2)CC1 | -0.4 | -12 | 0 | 14 | 3 | -5
8 | COc1cc(C)ccc1S(=O)(=O)NC(=O)C1(C)CCN1C(=O)Cc1ccc(C(C)(C)C)cc1 (centres undefined) | 0.2 | 1 | 4 | · | 1 | ·
9 | CCCCCC(=O)N1CCN(c2ccc(C(C)=O)cc2F)CC1 | 0.2 | 0 | -1 | -11 | 2 | -23
10 | CC(=O)OCC=C1CCC2C3CC(C)C4=CC(=O)CCC4(C)C3C(O)CC12C (centres undefined) | 1.9 | -1 | -8 | 6 | -6 | ·
11 | COC(=O)c1cccc(COC(=O)c2ccc(CS(=O)(=O)c3ccc(C)cc3)cc2)c1 | 1.8 | -25 | 6 | 3 | 0 | 3
12 | CCCCCCCCCOC(=O)C[n+]1csc(CCO)c1C | 2.0 | -14 | 10 | 19 | -1 | 5
13 | CN1CCN(S(=O)(=O)c2ccc(Cl)c3ccccc23)CC1 | -0.5 | -18 | -6 | -10 | -6 | ?
14 | COc1cc(/C=N/NC(=O)c2ccc(NC(=O)C3CC3)cc2)ccc1OC(C)=O | 0.1 | 2 | 0 | -18 | -2 | -7
15 | CCOc1ccc(NC(=O)CN(C)C(=O)CCCc2nc3ccccc3c(=O)[nH]2)cc1OCC | 0.2 | -2 | -19 | 15 | -6 | 8
16 | Cc1ccc(Cn2ccc(NC(=O)c3nn(C)cc3[N+](=O)[O-])n2)cc1 | -1.5 | -2 | 1 | -6 | 4 | 8
17 | COC(=O)c1ccc(CN2CCCC(C(=O)c3cc(F)ccc3OC)C2)cc1 (centres undefined) | -0.2 | -3 | -13 | 4 | 0 | 26
18 | COc1ccc(-c2ccc(CCC(=O)O)n2NC(=O)c2ccc(O)cc2)cc1 | 0.1 | -2 | -15 | 56 | · | 21
19 | O=C(CCSc1nc(-c2ccco2)cc(C(F)(F)F)n1)N1CCN(c2ccccn2)CC1 | 1.2 | 2 | 8 | -9 | -2 | -3
20 | Cc1cc(/C=C(\C#N)C(=O)NCc2ccccc2)cc(C)c1O | 1.6 | -16 | -4 | -14 | 1 | 4
21 | O=C(CSc1nnc(NC(=O)c2c(F)cccc2F)s1)NCC1CCCO1 (centres undefined) | 0.0 | 9 | 3 | 15 | 11 | 5
22 | CC1=NN(C(=O)CCc2ccc3c(c2)OCO3)C(O)(C(F)(F)F)C1 (centres undefined) | 0.3 | -1 | 2 | -14 | 0 | 7
23 | CN(Cc1nccn1C)C(=O)c1ccc(OC2CCN(CCc3ccccc3)CC2)cc1 | -0.4 | -27 | -1 | -5 | 0 | -15
24 | Cc1ccsc1C(=O)OCC(=O)c1cc(C)n(CC2CCCO2)c1C (centres undefined) | 1.4 | 16 | -2 | 18 | -4 | -5
25 | NN/C(=C\[N+](=O)[O-])Nc1ccccc1 | -0.2 | -6 | -3 | 14 | -20 | 1
26 | O=C(Nc1cccc2ccccc12)c1ccc(OC(=S)N2CCOCC2)cc1 | 1.1 | 2 | 15 | 6 | 51 | -13
27 | COc1ccccc1OCC(=O)NNC(=O)CCCC(=O)NNC(=O)COc1ccccc1OC | 0.2 | 7 | -3 | 2 | · | 5
28 | Cc1cccc(NC(=O)NCc2cccnc2)c1C | 1.2 | -13 | 5 | -8 | 3 | -8
29 | O=C(NCC1CCCCC1)c1cc(-c2cc(F)ccc2OCC2CCCO2)n[nH]1 (centres undefined) | -0.8 | 1 | -1 | · | 5 | ·
30 | O=C(O)CCc1nc2cc(Cl)ccc2n(Cc2ccccc2)c1=O | 0.5 | -4 | 5 | -28 | 0 | 14
31 | COC(=O)C(Cc1ccccc1)NC(=O)CNC(=O)c1ccc(Br)o1 (centres undefined) | 0.2 | 2 | 10 | 19 | -4 | -2
32 | C=CC[N+]1(CC#Cc2ccccc2)CCCC1 | -0.5 | 0 | 4 | -1 | 12 | -2
33 | COc1ccccc1-c1ccc2c(c1)C(C)(Cc1cccc(F)c1)C(=O)N2 (centres undefined) | -0.4 | -9 | -8 | · | -1 | ·
34 | O=C(NCC(=O)N(c1ccc2c(c1)OCO2)C(C(=O)NC1CCCC1)c1ccncc1)c1ccco1 (centres undefined) | -0.3 | 18 | 0 | -7 | -1 | -23
35 | CC(C)CN1CCNC(=O)C1CC(=O)NCCc1cnn(-c2ccccc2)c1 (centres undefined) | 1.6 | 1 | -6 | -5 | -9 | 4
36 | CC1CCCCN1C/C=C/c1ccccc1[N+](=O)[O-] (centres undefined) | -0.6 | -18 | 3 | -4 | 4 | 8
37 | CCN(CC)c1ccc(C(=O)NNC(=O)CNC(=O)c2cccs2)cc1 | 0.3 | -4 | 7 | -6 | · | 12
38 | CCc1nc2ccccc2c(C(=O)O)c1C | 0.5 | 8 | 4 | -3 | 1 | -11
39 | COc1ccc(NC(=S)N2CCC(c3nc4ccccc4[nH]3)CC2)c(OC)c1 | -0.5 | -13 | 0 | -8 | 5 | -4
40 | CCCC(=O)N(Cc1cc(=O)[nH]c2ccccc12)c1ccc(C)cc1 | -1.3 | -5 | 0 | -10 | 3 | -10
41 | Cc1ccccc1NC(=O)c1ccccc1NC(=O)c1ccco1 | 0.0 | -19 | 1 | -13 | -3 | 0
42 | CCCCCC(=O)NNC(=O)c1ccc(-c2ccccc2)cc1 | -0.3 | -11 | 3 | -8 | 0 | 23
43 | O=c1[nH]c2ccc([N+](=O)[O-])cc2nc1/C=C(\O)c1ccccc1 | 2.4 | -6 | 0 | 3 | · | 1
44 | COc1ccc(-c2nc(NC(=O)c3[nH]c(C)c(C(C)=O)c3C)sc2C)cc1 | 0.5 | 0 | -15 | 15 | -2 | -15
45 | COc1ccc(CNC(=O)c2ccc3c(=O)n(CCCN4CCCC4=O)c(=S)[nH]c3c2)cc1 | 1.8 | -9 | -8 | -25 | -10 | 9
46 | O=C(CSc1nc2c([nH]c3ccccc32)c(=O)n1-c1cccc(Cl)c1)N1CCOCC1 | -0.1&1.9 | -9 | -1 | 3&-6 | 1 | 22
47 | COc1cccc(CNC(=O)[C@@H]2CCCN2C(=O)[C@H]2CCCCN2)c1 | -1.0 | · | -2 | · | -1 | ·
48 | CC(C)c1nc(SCC(=O)Nc2ccc(N(C)C)cc2)c2ccccc2n1 | 4.8 | -5 | ? | ? | -3 | 1
49 | COc1cccc(NS(=O)(=O)c2ccc(S(=O)(=O)N3CCOCC3)cc2)c1 | 0.1 | -13 | -1 | -4 | 5 | 5
50 | O=C(CCc1ccccc1)Nc1nccs1 | · | 11 | 0 | · | · | ?
51 | CCCCn1c(NCc2ccc(OC)cc2O)nc2ccccc21 | -1.3&0.9 | -23 | -11 | 5&7 | 1 | ·
52 | O=C(Cc1c(F)cccc1Cl)NNC(=O)c1ccccc1Cl | 0.2 | -3 | 6 | -1 | 1 | 0
53 | COc1ccc(S(=O)(=O)N2CCOCC2)cc1N=Nc1sc(N)nc1-c1ccccc1 | 5.8 | -32 | ? | 43 | ? | -6
54 | Cc1nn(C)c(C)c1/C=N/NC(=O)c1csc2ccccc12 | -0.1 | -3 | 0 | -4 | -11 | -15
55 | CC(=O)N1CCCc2cc(S(=O)(=O)N3CCCC3)ccc21 | 0.1 | -23 | 12 | 21 | -1 | -2
56 | Cc1ccc(S(=O)(=O)NCCNC(=O)c2ccccc2)cc1 | -0.7 | -28 | 6 | -7 | -1 | -2

# The list continues:
no. | Molecule | TRPML1 ag | D2 PAM | Six1-Eya2 blk | TRPML1 blocker | CtBP-E1A blk | TRPV1 PAM
57 | COc1cc(/C=C/c2ccc3cccc(OC)c3n2)c(OC(C)=O)c([N+](=O)[O-])c1 | -0.5 | -24 | ? | -4 | -29 | 2
58 | Nc1ncncc1-c1ccc([N+](=O)[O-])cc1 | 3.6 | 1 | 4 | 0 | 1 | 21
59 | CCOC(=O)CCSc1nc(C)c2ccccc2n1 | 1.3 | -11 | 9 | -3 | 5 | 1
60 | COc1cc(C(=O)Nn2c(CC(C)C)nc3ccccc3c2=O)cc(OC)c1OC | -0.8 | 2 | -10 | -2 | 3 | 6
61 | CC1(C)C2CCC1(C)C(NC(=O)CCN1CCCCC1)C2 (centres undefined) | 0.7 | -15 | 0 | 4 | -16 | 10
62 | O=C(CCNS(=O)(=O)c1ccc2c(c1)CCC(=O)N2)NCc1cccnc1 | -0.9 | 2 | 3 | 19 | -1 | -12
63 | CCCn1c(=O)c(C(=O)N/N=C/c2ccccc2F)c(O)c2ccccc21 | -0.8 | -6 | 4 | 9 | 4 | -9
64 | O=C(Oc1ccc(OC(=O)C2CCC2)cc1)C1CCC1 | 6.1 | 2 | -12 | -5 | 4 | -7
65 | CCCNC(=O)C(Cc1ccc(I)cc1)NC(=O)C1CC1 (centres undefined) | -0.5 | -3 | -6 | -15 | 0 | -13
66 | CCc1ccccc1N(CC(=O)NCC1CCCO1)C(=O)CCC(=O)Nc1cc(C)on1 (centres undefined) | 0.0 | -6 | 2 | -2 | 0 | 15
67 | COc1cccc(C2OC(=O)c3ccccc3N2C(C)=O)c1OC(C)=O (centres undefined) | 1.0 | 0 | 2 | -18 | -3 | 6
68 | CCN(C1CCS(=O)(=O)C1)S(=O)(=O)c1cccc([N+](=O)[O-])c1 (centres undefined) | -0.4 | -7 | 1 | -16 | 2 | 4
69 | C/C(=N\NC(=O)c1ccccc1O)c1c(O)cc(C)oc1=O | -0.4 | -18 | ? | 0 | ? | -21

# High-throughput results from PubChem BioAssay.
